HSV augment – HSV replication enhancement. HSV replication augmentation in cells, fold increase. maximum fold increase. actives 0.005% (n = 220,000);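 active = peak rise of 1.5-fold or more in the series; inconclusive = self-fluorescent or not available for retest; tested in PC3 cells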;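 note: first round at 10 µM; read as green reporter fluorescence; hits show the peak of a series up to 25 µM; 1 = signal of infected wells without compound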
GALR2 agonist – agonists of human galanin receptor 2 (GALR2); GALR2-expressing cells, agonist activation read-out; O43603; actives 0.48% (n = 140,000); activation, %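 (tested at 5 µM)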;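 active = above mean plus 3 SD of all compounds, about 5% in these data, not always enough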;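 note: 0% = vehicle buffer wells and 100% = reference agonist at full effect; tested in CHO reporter cells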
Target sequence (O43603 whole entry, looked up): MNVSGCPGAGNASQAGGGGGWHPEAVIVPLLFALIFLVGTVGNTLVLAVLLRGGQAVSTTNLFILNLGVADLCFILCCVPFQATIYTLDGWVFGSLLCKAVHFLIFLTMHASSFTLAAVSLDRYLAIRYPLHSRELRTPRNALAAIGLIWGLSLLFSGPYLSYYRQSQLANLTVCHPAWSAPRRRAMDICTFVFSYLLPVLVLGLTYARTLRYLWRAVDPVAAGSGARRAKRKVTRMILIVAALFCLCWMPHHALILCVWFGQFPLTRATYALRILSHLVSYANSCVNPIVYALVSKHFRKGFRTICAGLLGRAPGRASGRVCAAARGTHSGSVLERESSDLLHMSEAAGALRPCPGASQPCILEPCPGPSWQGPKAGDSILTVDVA
INS promoter inh – TRM-6 insulin promoter activity inhibition; TRM-6 cells (human fetal islet line), insulin promoter-eGFP reporter, imaging; reporter expression induced with tamoxifen; inhibition, % at 2 µM; actives 0.9% (n = 130,000); AID 1273;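 active = inhibition above the mean plus 3 SD, with well images judged a real hit on visual review, cut at about 60% in these data, passing the limit was not always enough; inconclusive = inhibition over the cutoff but images rejected on review; inactive = inhibition not above the cutoff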
PKD1 kinase inh – PKD1 (human) kinase inhibition. PKD1 kinase fluorescence polarization assay. inhibition, %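 (about 10 µM by stock and volumes)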. actives 0.056% (n = 200,000). AID 797;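 active = inhibition of 50% or more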;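 note: controls were vehicle for no effect and a reference inhibitor for full effect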
RGS16-Gao HTS – regulators of human RGS16-Galphao interaction | bead-based flow cytometry RGS16-Galphao binding, fluorescence; actives lie on both sides | binding response (% of control), % at 10 µM | actives 0.38% (n = 220,000) | AID 1441;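 active = below 25% or above 175%, edge rows of some plates excepted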;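 note: Galphao activated by GDP with aluminum fluoride before binding; 100% = wells without compound and 0% = beads without RGS; some results beyond the cut were filed as inactive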
Target sequence (O15492 whole entry, looked up): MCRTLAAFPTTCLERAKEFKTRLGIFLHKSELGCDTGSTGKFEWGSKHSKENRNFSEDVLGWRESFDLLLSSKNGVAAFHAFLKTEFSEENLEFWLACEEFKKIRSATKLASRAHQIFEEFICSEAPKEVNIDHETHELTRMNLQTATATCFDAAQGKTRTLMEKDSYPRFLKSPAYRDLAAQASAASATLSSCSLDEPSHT
Target sequence (P09471 whole entry, looked up): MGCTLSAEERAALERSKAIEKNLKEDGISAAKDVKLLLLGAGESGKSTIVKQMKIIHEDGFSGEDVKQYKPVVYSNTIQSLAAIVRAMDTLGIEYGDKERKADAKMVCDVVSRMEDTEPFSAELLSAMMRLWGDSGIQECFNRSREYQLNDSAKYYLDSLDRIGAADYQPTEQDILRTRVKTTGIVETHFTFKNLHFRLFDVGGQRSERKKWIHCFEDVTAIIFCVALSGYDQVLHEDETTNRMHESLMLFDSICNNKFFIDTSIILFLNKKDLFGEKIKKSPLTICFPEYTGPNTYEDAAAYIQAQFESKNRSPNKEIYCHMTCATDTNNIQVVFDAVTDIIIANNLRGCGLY
INS promoter inh cell count – recorded beside INS promoter inh, whose call it bears; normalized cell count, %; measured here: cell count, toxicity; reference of the scale not given here;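 cells exposed to compound for 48 h; stained nuclei by imaging scaled within each plate; lower means fewer cells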
HSV augment primary fold – recorded beside HSV augment, whose call it bears; fold increase; compound at 10 µM; measured here: primary screen fold increase 10 uM; tested in PC3 cells;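 GFP signal in the first replicate; 1 = infected wells without compound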
Starred values were filed as active, the others as inactive; i = inactive; ? = inconclusive; · = not tested or not shown. This is a random part of the collection (roughly 1.3% active in at least one column).

SMILES	HSV augment	HSV augment primary fold	GALR2 agonist	INS promoter inh	INS promoter inh cell count	PKD1 kinase inh	RGS16-Gao HTS
C[C@H](NC(=O)c1nc[nH]c1C(=O)N[C@@H](C)C(=O)OC(C)(C)C)C(=O)OC(C)(C)C	i	0.88	·	·	·	·	111
CN(CC(=O)N1CCN(c2ccccn2)CC1)S(=O)(=O)c1ccc(Br)cc1	i	0.98	-1.6	-319	58	5	104
CC(NCc1ccc(N(C)C)cc1)C1CC2CCC1C2 (stereo unspecified)	i	0.84	-1.2	-69	76	-4	99
Cc1ccc(S(=O)(=O)NC2CCCC2)cc1C	i	0.93	-3.6	13	64	3	103
COCCNC(=O)c1sc2ncn(CC(=O)Nc3ccc(C)c(Cl)c3)c(=O)c2c1C	i	0.92	·	7	90	-3	104
Cc1ccc(N2C(=O)N(CC(=O)NCc3ccccc3Cl)C(=O)C2C)cc1 (stereo unspecified)	i	0.94	·	·	·	5	98
CCOc1ccccc1NC(=O)COn1nnc2ccccc21	i	0.81	-0.3	·	·	-9	114
CCN(CC)CCOC(=O)c1ccc(NC(=O)c2cn(-c3ccccc3)nc2-c2cccs2)cc1	i	0.73	·	0	140	-3	107
Cc1ccccc1N1CCN(C(=S)c2ccccc2)CC1	i	0.93	0.1	15	121	2	107
Cc1ccc(S(=O)(=O)NC(=O)Nc2ccc(Cl)cn2)cc1	i	0.91	0.5	·	·	-10	90
Nc1nnnn1/N=C/c1ccccc1C(F)(F)F	i	0.9	-1.4	·	·	-8	114
O=c1c2oc3ccccc3c2ncn1Cc1ccccc1Cl	i	0.92	-0.5	-17	106	-10	101
Cc1ccc(S(=O)(=O)Nc2ccc(C(=O)OCC(=O)N(CCC#N)c3ccccc3)cc2)cc1C	i	0.94	-1.1	25	103	-10	53
CCCCC(=O)NCCc1cc2ccc(OC)cc2[nH]c1=O	i	0.93	-1.8	-5	142	-2	105
Cc1nnc2n1N=CC=C(C(C)(C)C)S2	i	0.88	-2.6	39	99	6	101
Cc1ccc2[nH]c3c(c2c1)SC(C)(C)CC3=O	i	0.93	·	·	·	-2	102
COc1ccc(C(C(=O)NC(C)(C)C)N(C(=O)Cn2nnc3ccccc32)c2ccc(C(C)=O)cc2)cc1O (stereo unspecified)	i	0.88	·	·	·	·	94
COc1cc(N2C(=O)c3ccccc3C2=O)c(Cl)cc1C(=O)OCC(=O)NCc1ccco1	i	0.84	1.0	7	142	-4	95
Cc1ccccc1-c1nnn(CC(=O)N2CCN(S(=O)(=O)c3ccc(Cl)cc3)CC2)n1	i	0.98	-2.2	·	·	0	100
Cc1c(C(=O)Nc2ccccc2C(=O)N2CCCC2)cccc1[N+](=O)[O-]	i	0.82	·	·	·	4	102
Cc1cc(C)c2c(n1)nn1c(NCCOCCO)cc(C)nc21	i	0.88	-0.6	·	·	-6	99
O=C(c1sc2ccccc2c1Cl)N1CCN(c2ncccn2)CC1	i	0.98	-0.2	-26	82	-11	91
COCCNCCCCSc1ccc(Cl)cc1	i	0.86	·	·	·	-7	104
CCC(=O)Nc1ccc(Cl)c(NC(=O)c2ccccc2OC)c1	i	0.96	·	0	83	6	88
CCCNC(=O)c1ccccc1C(=O)NCCC	i	0.96	-0.9	-25	169	-4	91

More structures follow.
SMILES	HSV augment	HSV augment primary fold	GALR2 agonist	INS promoter inh	INS promoter inh cell count	PKD1 kinase inh	RGS16-Gao HTS
CCc1ccc(NC(=O)C2CCCN(S(C)(=O)=O)C2)cc1 (stereo unspecified)	i	0.94	·	·	·	12	103
O=C(Nc1ccc2nsnc2c1)c1ccc2c(c1)OCO2	i	0.95	-0.6	0	95	-6	101
COC(=O)c1ccc(S(=O)(=O)N2CCCCCC2)n1C	i	0.91	·	·	·	·	101
Cc1ccc(SCc2cc(=O)[nH]c(/N=C(\N)Nc3cccc4ccccc34)n2)cc1	i	1.2	0.5	-84	103	-2	111
CC(C)(C)OC(=O)NCCCCCc1nnc(SCC(=O)Nc2cccc(Cl)c2)o1	i	0.93	-0.8	-50	71	-1	102
COc1ccc(N=C2SC(C(=O)N3CCN(c4ccccc4)CC3)CC(=O)N2C)cc1 (stereo unspecified)	i	1.1	·	·	·	6	97
Brc1ccc(C2=Nc3cccc4cccc(c34)N2)o1	i	0.93	-1.0	3	143	5	99
Cc1cc(C[n+]2ncsc2N)c2ncccc2c1	i	1	·	·	·	·	96
COc1cc(C2C3=C(CCCC3=O)Nc3[nH]n(-c4ccccc4)c(=O)c32)cc(OC)c1OC (stereo unspecified)	i	0.92	·	42	140	-2	104
CCNc1ccc(C(=O)OCC)cc1NC(=O)c1cccc(S(=O)(=O)N(C)c2ccccc2)c1	i	1	-1.1	·	·	-9	109
O=c1[nH]c2ccc(Cl)cc2c(-c2ccccc2)c1N1CCOCC1	i	0.84	-1.1	·	·	-7	87
COc1cccc(C(=O)NNc2nc(C)cc(C)n2)c1	i	1	-0.1	25	119	3	77
Cc1ccc2cc(CN(C(=O)C3CCCO3)C3CCCCC3)c(=O)[nH]c2c1 (stereo unspecified)	i	0.98	4.1	25	88	0	93
Cc1nn(CC(=O)N(C)C)c(=O)c2ccccc12	i	0.81	-1.6	9	129	7	100
COc1ccc(Cl)cc1C(=O)NNC(=O)C1COc2ccccc2O1 (stereo unspecified)	i	0.68	·	0	115	-2	98
C=CCNC(=O)COc1ccc(N(C)S(=O)(=O)c2ccc(NC(C)=O)cc2)cc1	i	1.1	·	-6	138	0	92
O=C(CCC(=O)N1CCN(S(=O)(=O)c2ccc(Cl)cc2)CC1)Nc1cccc(Br)c1	i	1	-2.3	-73	121	-4	106
Cc1ccc2c(CC(=O)O)coc2c1C	i	0.89	-1.4	12	86	-3	99
CC12C(=O)N(c3ccccc3)C(=O)C1C(c1ccccc1)N1CCCN12 (stereo unspecified)	i	0.98	·	·	·	·	103
COc1ccc(C(=O)Nc2cc(C)nn2-c2nc3ccccc3[nH]2)c(OC)c1	i	0.87	·	14	100	-4	110
Cc1ccc(C)n1/N=C1/NC(=O)CS1	i	1	-2.2	28	129	2	88
O=C(O)CSc1nc(SCc2ccccc2Cl)nc2c1CCCC2	i	1.1	-0.7	·	·	-11	101
O=C(O)CCCCCN1C(=O)C2CCCCC2C1=O (stereo unspecified)	i	0.81	-1.1	-44	94	-2	91
CCCC1(c2ccccc2)NC(=O)N(CC(=O)Nc2cc(C)on2)C1=O (stereo unspecified)	i	0.99	·	9	170	-1	110
CC1CCc2c(sc3nc(SCC(=O)NCc4ccco4)nc(N)c23)C1 (stereo unspecified)	i	0.93	-0.2	·	·	10	98

Remaining list, next part.
SMILES	HSV augment	HSV augment primary fold	GALR2 agonist	INS promoter inh	INS promoter inh cell count	PKD1 kinase inh	RGS16-Gao HTS
Cc1c(C(=O)OCc2ccccc2)[nH]c2c1C(=O)CC(c1ccco1)C2 (stereo unspecified)	i	0.65	2.2	·	·	-14	89
O=C(NC1CCCCC1)C(c1cc2c(cc1[N+](=O)[O-])OCO2)N1CCCCC1 (stereo unspecified)	i	1	-0.8	0	126	-6	96
O=C(O)CCCC(=O)Nc1ccc(C(=O)N2CCCCC2)cc1	·	·	-2.1	-245	50	-2	102
Cc1c(NC(=O)c2ccc3c(c2)OCO3)cccc1-c1nc2ccccc2s1	i	0.86	-4.3	·	·	-2	106
CCc1nc2n[nH]c(N)c2c2c1CSC(C)(C)C2	i	1	-1.1	8	119	2	99
Cn1nnc2cc(C(=O)Nc3ccc(Cl)cc3)ccc21	i	0.87	·	·	·	6	99
C=CCOc1c(/C=N\NC(N)=O)cccc1OC	i	0.87	·	·	·	·	98
CN(Cc1cccnc1)Cc1cn(Cc2ccccc2)nc1-c1ccc2c(c1)OCO2	i	0.78	·	·	·	-11	104
CCCCCC(=O)Nc1ccc(-c2csc(C)n2)cc1	i	0.84	-0.5	-43	107	1	101
COc1ccc(NC2=CC(=O)CC(c3ccccc3)C2)c(OC)c1 (stereo unspecified)	i	0.75	-0.3	25	72	0	98
Cn1c(=O)[nH]c(=O)c2c1nc(SCC(=O)Nc1ccccc1)n2Cc1ccccc1	i	0.95	-0.5	·	·	-23	107
Cn1c(=O)c2[nH]cnc2n(C)c1=O	i	0.8	-0.8	38	139	0	100
Cc1ccc(C)c(NC(=O)COc2cccc3c2CCN(Cc2ccccc2)C3=O)c1	·	·	-1.4	·	·	-3	110
C#CCOC(=O)Nc1cccn(Cc2c(Cl)cccc2Cl)c1=O	i	0.66	-1.5	·	·	-3	101
Cc1cccc(COCC(Cc2ccccc2)N2CCN(C(=O)c3cccc(Cl)c3)CCC2=O)c1 (stereo unspecified)	i	0.93	-2.0	14	86	-7	105
COc1ccc(CCNC(=O)c2ccc(CNc3nc(=S)[nH]c4ccccc34)cc2)cc1OC	i	0.92	·	43	128	-6	99
COc1ccc(-c2nnc(SCc3nc4ccccc4c(=O)[nH]3)o2)cc1	i	0.93	·	·	·	·	103
O=C(O)/C=C/C(=O)Nc1ccc(F)cc1F	i	0.84	-0.3	8	107	5	99
CCOc1ccccc1NC(=O)c1ccccc1N(C)S(C)(=O)=O	i	1	1.3	-37	121	-3	78
CC(=Nc1ccccc1O)c1sc2ccccc2c1O	?	·	·	·	·	·	101
CCC(C)c1ccc(OCCCCN2CCOCC2)cc1 (stereo unspecified)	i	1	-1.9	·	·	-3	103
COc1cc(NC(=O)c2ccccc2)c(OC)cc1NC(C)=O	i	0.96	-3.9	41	119	-3	99
OC(COc1ccc2c(c1)CCC2)Cn1cnc2ccccc21 (stereo unspecified)	i	0.85	-4.4	-25	110	1	112
COc1ccc(C(=O)Cn2nnc(-c3ccccc3NC(=O)C3CC3)n2)cc1	i	0.91	-2.2	-22	80	-3	102
Cn1cccc1/C=C(\C#N)c1ccccc1	·	·	·	-23	115	-7	101

Molecules listed so far containing a cyano group (2):
SMILES	HSV augment	HSV augment primary fold	GALR2 agonist	INS promoter inh	INS promoter inh cell count	PKD1 kinase inh	RGS16-Gao HTS
Cc1ccc(S(=O)(=O)Nc2ccc(C(=O)OCC(=O)N(CCC#N)c3ccccc3)cc2)cc1C	i	0.94	-1.1	25	103	-10	53
Cn1cccc1/C=C(\C#N)c1ccccc1	·	·	·	-23	115	-7	101

Arranged by molecular weight (falling): part of the list above.
SMILES	HSV augment	HSV augment primary fold	GALR2 agonist	INS promoter inh	INS promoter inh cell count	PKD1 kinase inh	RGS16-Gao HTS
Cc1cccc(COCC(Cc2ccccc2)N2CCN(C(=O)c3cccc(Cl)c3)CCC2=O)c1 (stereo unspecified)	i	0.93	-2.0	14	86	-7	105
COc1ccc(C(=O)Cn2nnc(-c3ccccc3NC(=O)C3CC3)n2)cc1	i	0.91	-2.2	-22	80	-3	102
COc1ccc(-c2nnc(SCc3nc4ccccc4c(=O)[nH]3)o2)cc1	i	0.93	·	·	·	·	103
CCOc1ccccc1NC(=O)c1ccccc1N(C)S(C)(=O)=O	i	1	1.3	-37	121	-3	78
COc1ccc(NC2=CC(=O)CC(c3ccccc3)C2)c(OC)c1 (stereo unspecified)	i	0.75	-0.3	25	72	0	98
Cn1c(=O)c2[nH]cnc2n(C)c1=O	i	0.8	-0.8	38	139	0	100

Later entries.
SMILES	HSV augment	HSV augment primary fold	GALR2 agonist	INS promoter inh	INS promoter inh cell count	PKD1 kinase inh	RGS16-Gao HTS
CCOc1ccc(N2C(=O)CC(N(Cc3ccco3)C(C)=O)C2=O)cc1 (stereo unspecified)	i	1.1	·	·	·	0	56
CCc1cc(=O)oc2cc3occ(C)c3cc12	i	0.9	-0.4	13	91	-16	106
CC(C)Cc1nc2sc3c(NCc4ccco4)ncnc3c2c2c1COC(C)(C)C2	i	0.8	-0.7	-4	104	-5	102
O=C(COC(=O)c1ccc(NS(=O)(=O)c2cccs2)cc1O)NC1CCCCC1	i	1.1	·	·	·	·	97
O=C(CCS(=O)(=O)c1ccc(Br)cc1)NCc1cccs1	·	·	-0.4	·	·	-10	103
CCCc1cc(=O)[nH]c(SCC(=O)c2c(C)[nH]c3ccccc23)n1	i	0.97	·	·	·	·	102
COCCNC(=S)N1CCN(C)CC1	i	0.91	·	·	·	·	101
O=C(COC(=O)c1cccc(S(=O)(=O)N2CCCC2)c1)NCc1ccccc1	i	1	·	25	80	2	102
